Bioassay records: PubChem BioAssay, several laboratories
PABP polyA inh: PABP-poly(A) binding inhibition; P11940; PABP-poly(A) RNA binding, fluorescence polarization; inhibition, % at 35 µM; 1% of 290,000 active; AID 2014;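 active = 50% or more with normal probe brightness, or confirmed in later tests; inconclusive = above 50% with abnormal brightness, or retests that disagree; inactive = below 50% or failed in later tests; about a fifth of its hits are not listed in these tables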;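 note: calls also rest on retests at 20 µM and on dose response follow-up; controls were probe without protein and protein plus probe with vehicle; some compounds called inactive have numbers as strong as hits; many hits fall short of the cut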
eIF4H FP inh: inhibitors of RNA binding by human eIF4H; eIF4H fluorescence polarization binding assay; inhibition, % at 35 µM; 0.94% of 290,000 active; AID 2012;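 active = 50% or more with normal probe brightness, or confirmed in later tests; inconclusive = above 50% with abnormal brightness, or retests that disagree; inactive = below 50% or failed in later tests; about a fifth of its hits are not listed in these tables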;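 note: calls also rest on retests at 20 µM and on dose response follow-up; 0% = protein and probe with vehicle and 100% = probe without protein; strong numbers were not always called active; many hits fall short of the cut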
UUG fidelity: yeast start codon fidelity modulation; S. cerevisiae UUG-firefly luciferase reporter, luminescence/redox ratio; activity score, % at 18.7 µM; 0.13% of 350,000 active; AID 602363;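 active = replicate mean at a twofold rise or more, about +100% in these data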;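 note: firefly luciferase made from a UUG start codon reports start codon fidelity; reporter light over untreated wells divided by growth signal over untreated wells; some hits fall short of that in this replicate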
MT1-MMP act inh: MT1-MMP (human) activation inhibition. P50281. HT1080 RFP-PRO-GFP cells, GFP/RFP ratio fluorescence, overnight; percent of plate control window, DMSO zero. GFP/RFP ratio change, % at 20 µM. 0.061% of 360,000 active;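 active = GFP/RFP ratio change of at least 30% with cell ATP level not reduced by more than half and red fluorescence within 50% of control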; note: strong numbers were not always called active
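Assay system: HT1080 cells carrying an RFP-PRO-GFP reporter | Dosing: Single dose of 20 µM compound, 1% DMSO final | Incubation: Cells overnight before dosing, compound overnight, 37 °C, 5% CO2 | Evaluation: GFP/RFP fluorescence ratio | Control set: DMSO and RFP-L50D-GFP cell wells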
CSC inhib: blocks cancer stem cells; cancer stem cell-like cells viability, luminescence; inhibition, % at 7.5 µM; 1.1% of 300,000 active; AID 2717;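 active = mean at 75% or more and at least half the replicates too; inconclusive = mean and replicates disagree; tested in HMLE shEcad cells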;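 note: 0% = median of negative and 100% = median of positive control wells; the first replicate is given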
Rce1 inhib: inhibitors of yeast Ras-converting enzyme | 0.27% of 290,000 active | Q03530 | calls only | AID 2563 | yeast membranes, quenched prenylated peptide cleavage fluorescence;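 active = fall in fluorescence gain of 50% or more versus controls, with final raw signal at or below 3038400; inconclusive = same 50% fall but final raw signal above 3038400; inactive = fall in fluorescence gain under 50%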;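 note: plate controls were neutral control wells for no effect and wells lacking membranes for full effect; tested at 10 µM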
Target sequence (Q03530 whole entry, looked up): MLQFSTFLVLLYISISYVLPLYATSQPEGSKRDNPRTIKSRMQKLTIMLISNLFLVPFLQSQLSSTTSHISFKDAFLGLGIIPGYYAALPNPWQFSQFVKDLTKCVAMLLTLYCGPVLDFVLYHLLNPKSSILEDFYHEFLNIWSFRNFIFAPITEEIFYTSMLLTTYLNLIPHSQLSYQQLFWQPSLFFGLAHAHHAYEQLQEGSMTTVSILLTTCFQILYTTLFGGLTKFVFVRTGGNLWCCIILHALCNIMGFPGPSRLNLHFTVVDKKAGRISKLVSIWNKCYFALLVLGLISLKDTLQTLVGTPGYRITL
HIV Env fusion: inhibitors of HIV Env-mediated cell fusion | 1.1% of 360,000 active | inhibition, % at 12.3 µM | HeLa-JRFL Env/CEM21 cell fusion, luciferase;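 active = mean replicate inhibition score of at least 50 and every replicate individually at or above 50; inconclusive = only one of the two criteria met; inactive = mean below 50 and not all replicates reaching 50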;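 note: 0% = plate neutral controls and 100% = maraviroc near 300 nM; one replicate is shown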
eIF4H FP inh retest: recorded beside eIF4H FP inh, whose call it bears; inhibition, %; compound at 20 µM; confirmation average;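 mean of two retest wells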
PABP polyA inh retest: further read-out of PABP polyA inh, marked with its call; inhibition, %; compound at 20 µM; confirmation repeats;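 mean of two retest wells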
MT1-MMP act inh RFP: further read-out of MT1-MMP act inh, marked with its call; RFP signal change, %; measured here: RFP expression control read;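 0 = vehicle wells; hits needed this value within 50% of zero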
* hit, by the source's call; i = inactive; ? = inconclusive; / = not tested or not shown; + = active, no number.

SMILES	PABP polyA inh	eIF4H FP inh	UUG fidelity	MT1-MMP act inh	MT1-MMP act inh RFP	CSC inhib	Rce1 inhib	HIV Env fusion	others
O=C(O)c1cc(S(=O)(=O)N2CCCCCC2)c(Cl)cc1Cl	21	-5	-21	5	2	10	i	/
CCC1(c2ccc(Cl)cc2)NC(=O)N(CC(=O)NC2CCCCCC2)C1=O (stereo unspecified)	/	/	9	4	1	/	/	-23
Fc1ccc(C2=CC(c3ccco3)n3nnnc3N2)cc1 (stereo unspecified)	3	2	-23	-5	2	-12	i	2
COc1ccc(OC)c(-c2cc(C3CCN(c4ncccc4[N+](=O)[O-])CC3)[nH]n2)c1	-1	-17	-20	-13	-10	/	i	3
O=C(NNc1ccccc1F)C1CCC1	-3	-3	/	-2	1	-3	i	-38
COc1ccccc1C(=O)C(=O)c1ccccc1OC	/	/	-5	1	-2	/	/	-3
COC(=O)CSC1=NS(=O)(=O)c2ccccc21	2	0	/	2	6	24	i	/
Cc1cc2c(cc1S(=O)(=O)NCCc1ccccc1)NC(=O)CO2	/	/	/	0	1	-2	i	-7
CC1(C)Cc2sc3c(=O)[nH]c(=S)[nH]c3c2CO1	0	6	/	-2	4	-2	i	2
CC1=CC=CN2C1=NC(=O)CC2(C)C(=O)N(CC(=O)NC1CCCC1)c1ccccc1C (stereo unspecified)	-3	-21	/	-1	6	-23	?	-4
COc1ccc(S(=O)(=O)N2CCOCC2)cc1NC(=O)CCc1c[nH]c2ccccc12	5	-5	-2	1	-7	2	i	29
CC(C)(C)N(NC(=O)Nc1ccccc1)C(=O)c1ccccc1	-4	4	-2	-3	4	-8	i	-7
Cc1ccc2c(c1)N(CCCC(=O)NCCC1=CCCCC1)C(=O)CO2	-3	-9	19	8	0	-8	i	8
Cc1ccc(-c2cc(C(=O)NCCN3CCOCC3)c3ccccc3n2)o1	4	15	-16	-2	6	5	i	9
O=C(CN1CCN(c2cccc(Cl)c2)CC1)NCc1ccccc1	-12	-3	-6	1	2	3	i	18
Cc1nnc2sc(-c3ccncc3)nn12	2	1	-17	1	2	-9	i	-68
Cc1csc(SCC(=O)Nc2nnc(C)s2)n1	4	5	-14	5	7	-6	i	-13
CC(c1ccon1)N(C)Cc1cn(C)nc1-c1ccc2c(c1)OCCO2 (stereo unspecified)	2	-1	-12	11	9	0	i	0
CCOc1ccc(NC(=S)N(CCc2c(C)[nH]c3ccc(C)cc23)Cc2ccncc2)cc1	83	-7	-19	-5	-10	-1	i	-40	eIF4H FP inh retest=-2;PABP polyA inh retest=-1
Cc1cc2[nH]c(=O)c(=O)[nH]c2cc1S(=O)(=O)N1CCN(c2cccc(Cl)c2)CC1	-6	14	-9	-1	-2	/	i	17
COC(=O)C1(CC2CC(c3ccncc3)=NO2)CCN(C(=O)OC(C)(C)C)CC1 (stereo unspecified)	/	/	-4	-4	-10	-5	i	17
COc1ccc(OCC(=O)N2CCN(S(=O)(=O)c3ccc4c(c3)OCCO4)CC2)cc1	/	/	-25	-3	-1	/	/	27
Cc1ccc(CNC(=O)CSc2nc3ccsc3c(=O)n2Cc2ccccn2)cc1	-10	-12	-8	-4	-5	-1	i	?
Nc1ccc2nc(C3CCCCC3)[nH]c2c1	5	-4	-9	11	8	11	i	22
COCc1ccc(C(=O)Nc2ccc(C(=O)O)cc2)o1	0	-3	/	-1	-2	-3	i	-4

Fetched by compound from the list above (seven):
SMILES	PABP polyA inh	eIF4H FP inh	UUG fidelity	MT1-MMP act inh	MT1-MMP act inh RFP	CSC inhib	Rce1 inhib	HIV Env fusion	others
O=C(NNc1ccccc1F)C1CCC1	-3	-3	/	-2	1	-3	i	-38
Nc1ccc2nc(C3CCCCC3)[nH]c2c1	5	-4	-9	11	8	11	i	22
Cc1cc2[nH]c(=O)c(=O)[nH]c2cc1S(=O)(=O)N1CCN(c2cccc(Cl)c2)CC1	-6	14	-9	-1	-2	/	i	17
Cc1ccc(-c2cc(C(=O)NCCN3CCOCC3)c3ccccc3n2)o1	4	15	-16	-2	6	5	i	9
COc1ccc(OC)c(-c2cc(C3CCN(c4ncccc4[N+](=O)[O-])CC3)[nH]n2)c1	-1	-17	-20	-13	-10	/	i	3
O=C(CN1CCN(c2cccc(Cl)c2)CC1)NCc1ccccc1	-12	-3	-6	1	2	3	i	18
COc1ccc(S(=O)(=O)N2CCOCC2)cc1NC(=O)CCc1c[nH]c2ccccc12	5	-5	-2	1	-7	2	i	29

Next part
SMILES	PABP polyA inh	eIF4H FP inh	UUG fidelity	MT1-MMP act inh	MT1-MMP act inh RFP	CSC inhib	Rce1 inhib	HIV Env fusion	others
Cc1c2c(n3c(nc4ccccc43)c1C#N)N(CCN(C)C)CC2	?	?	/	-4	-3	-4	i	10
COCC(=O)Nc1ccc(-c2cn3cccnc3n2)cc1	2	4	-12	6	0	11	?	/
COC(=O)[C@H](C)NC(=O)Nc1cccc(Br)c1	12	-4	/	0	4	-13	i	-8
CCC(=O)N1CCc2cc(S(=O)(=O)NCCN3CCC(C)CC3)ccc21	-5	-9	7	-2	1	3	i	/
CC1=CC(=NOC(=O)c2cccc([N+](=O)[O-])c2)C=C(C)C1=O	16	4	/	-54	6	11	i	/
CCCn1c(SCC(=O)NCc2cccs2)nc2c1c(=O)n(C)c(=O)n2C	-10	1	1	1	2	7	i	/
O=C(COC(=O)Cc1c(F)cccc1Cl)Nc1ccc2[nH]c(=O)[nH]c2c1	/	/	-11	1	-3	-16	/	14
COC(=O)c1sc2ncccc2c1OCc1ccc(Cl)cc1	-1	-5	-11	-3	0	-9	i	-4
CCc1ccc(N2CC(C(=O)N/N=C/c3cccc([N+](=O)[O-])c3)CC2=O)cc1 (stereo unspecified)	-4	0	/	7	3	0	/	/
COc1ccc(NC(=O)c2cc([N+](=O)[O-])ccc2NC(=O)CNC2CCCCC2C)c(OC)c1 (stereo unspecified)	9	2	-3	1	1	16	i	12
S=c1[nH]nc(-c2ccccn2)n1/N=C/c1cccc2ccccc12	2	-6	/	2	7	-10	i	/
CCS(=O)(=O)NC(C)C(c1cccs1)N1CCN(C)CC1 (stereo unspecified)	-1	1	-15	0	1	4	i	/
Cc1cc(C)cc(NC(=O)Nc2cnccn2)c1	7	-18	-1	-5	-1	6	i	5
Cc1[nH]n(C(N)=S)c(=O)c1C(c1ccccc1)C(C#N)C#N (stereo unspecified)	7	-10	-31	-1	0	-7	i	/
Cc1sc2nc(C3CC3)nc(SCC(=O)NCc3ccco3)c2c1C	5	3	-3	-5	-1	-8	i	/
CC1(C(=O)NS(=O)(=O)c2ccccc2)CCN1C(=O)C/C=C/c1ccccc1 (stereo unspecified)	/	/	-3	0	6	/	/	-4
Cc1nnsc1-c1onc(C)c1C(=O)Nc1cc(Cl)cc(Cl)c1	0	-3	/	-8	-13	25	i	10
C=CCNC(=S)NNC(=O)CCC(O)CCCCC (stereo unspecified)	-7	-4	/	3	6	-3	i	/
COc1ccccc1C(=O)NCCC(=O)N(C)CC(=O)Nc1ccc(Cl)cc1	/	/	1	-2	0	/	i	-142
COC(=O)c1ccc(-c2nc3ccc(C)cc3o2)cc1	-13	-6	-22	8	5	51	i	-436
O=C(O)c1cnc2ccc(Cl)cc2n1	/	/	-33	-5	6	/	/	-7
O=S(=O)(c1cnc[nH]1)N1CCCCCC1	5	-11	-13	-5	4	-9	i	-13
C=CCn1c(SCc2ccc(C#N)cc2)nnc1-c1ccc(C)cc1	-12	-9	-3	0	-3	1	+	-48
CCOC(=O)C1CCCN(C(=O)c2cnn3c(C(F)(F)F)cc(-c4ccccc4)nc23)C1 (stereo unspecified)	-5	4	/	1	1	-5	i	/
O=C(CCSc1ccc(Cl)cc1)c1ccco1	-4	-2	-26	-7	-8	16	i	-1

Further structures follow.
SMILES	PABP polyA inh	eIF4H FP inh	UUG fidelity	MT1-MMP act inh	MT1-MMP act inh RFP	CSC inhib	Rce1 inhib	HIV Env fusion	others
COc1ccc(-n2c(=S)[nH]c3cc(C(=O)NC4CCCCC4)ccc3c2=O)c(OC)c1	4	-14	-16	1	-1	9	i	17
Cc1ccc(C(=O)OCC(=O)NC2CCS(=O)(=O)C2)c(C)c1 (stereo unspecified)	/	/	-27	-3	0	-19	/	/
C/C(=N\Nc1nc2ccccc2[nH]1)c1ccccn1	1	9	-31	-16	-4	/	i	65*
O=C(NCC1CCCCC1)c1ccco1	12	9	/	-2	2	-12	i	/
Cn1c(C(=O)N2CCN(c3ccccc3)CC2)cc2cc(Cl)ccc21	3	3	-7	-3	-1	-3	i	-6
C=CCn1c(N)c(C(=O)NC2CCCCC2)sc1=S	4	-12	-6	4	3	-1	i	-39
COc1ccccc1/C=C/C(=O)OCC(=O)c1c(N)n(C)c(=O)n(C)c1=O	4	-4	-16	5	1	11	i	32
CC(C)NC(=O)CCCC(=O)NC(C)C	64*	2.2*	-8	-6	4	/	i	-21	eIF4H FP inh retest=107*;PABP polyA inh retest=80*
O=S(=O)(NCC1CCCO1)c1ccc(Cl)c(C(F)(F)F)c1 (stereo unspecified)	-2	5	-4	-4	-1	/	i	-12
Cc1[nH]c(=S)c(C#N)c(C)c1C(=O)Nc1ccccc1	13	-4	-14	1	1	6	i	/
O=C(O)CSc1c[nH]c2ccccc12	14	-5	-11	-3	-12	-1	i	-3
Cc1c(Cl)cccc1-n1c(SCC(=O)N(C)Cc2ccccc2)nnc1-c1ccncc1	-14	-11	-6	-4	1	5	i	20
COCCN(CCOC)c1nc(-c2ccccc2)nc2ccccc12	3	4	-21	-9	-7	-7	i	-5
CN(C)c1ccc(Nc2nc(N)c3ccccc3n2)cc1	3	-11	-80	21	-2	/	i	10
Cc1ccc(CNC(=O)CNC(=O)c2ccc(Br)o2)cc1	-12	-6	-14	-5	1	/	i	0
C=CCNC(=O)CCCOc1ccc(C)cc1	-4	-8	-10	3	7	-7	i	/
CN(C)CCCN(C(=O)CCSc1ccccc1)c1nc2cc3c(cc2s1)OCO3	-6	-13	-15	3	-1	25	i	-3

Not a retest: an excerpt of the list.
SMILES	PABP polyA inh	eIF4H FP inh	UUG fidelity	MT1-MMP act inh	MT1-MMP act inh RFP	CSC inhib	Rce1 inhib	HIV Env fusion	others
Cc1[nH]c(=S)c(C#N)c(C)c1C(=O)Nc1ccccc1	13	-4	-14	1	1	6	i	/
O=C(O)CSc1c[nH]c2ccccc12	14	-5	-11	-3	-12	-1	i	-3

An unsorted share of the library; about 3% have a hit in one of these screens.
